# YB-1 expr inh: YB-1 expression inhibition. actives 0.37% (n = 30,000). delta delta Cp (YB-1 minus CDIP) (concentration not given with the values). U2OS, qRT-PCR YB-1 vs CDIP delta delta Cp, 16 h; active compounds read high; zero = DMSO, each unit about twofold;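 active = delta delta Cp rounded down to an integer at or above 3, about 3 SD of DMSO wells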;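 note: higher means less YB-1 transcript or more CDIP transcript relative to DMSO; stock transfer was 100 nL into about 100 µL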
# PD-1 reversal: activators reversing PD-1 mediated T-cell inhibition; primary human CD4 T cells, PD-L1 beads, CellTiter-Glo 96 h; activation, % (no concentration beside the values); 29,000 tested, under 10 active; AID 2316;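 active = replicate mean of 50% or more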;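 note: 0% = median vehicle wells and 100% = positive control; 100 nL library stock added to about 50 µL; numbers are from one replicate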
# MITF inh: inhibitors of MITF; TRPM1 promoter luciferase, luminescence, 24 h; actives 0.28% (n = 37,000); inhibition, % (concentration not given with the values); AID 2240;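 active = most replicates at 85% or more, or half of them and the mean; inconclusive = half reach 85% but not the mean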;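 note: human melanocyte line stably carrying TRPM1 promoter luciferase reporter; 0% = vehicle wells and 100% = a positive control; the first replicate is given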
# Shh pathway inh: Sonic Hedgehog pathway inhibition; Shh-LIGHT2 Gli-luciferase reporter, 30 h; inhibition, % (test concentration not listed); actives 2.1% (n = 22,000);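 active = replicate mean of 65% or more; inconclusive = mean lower but half the replicates past it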;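 note: pathway switched on by Shh-conditioned medium diluted 1 in 25 in low serum; 100 nL library stock added to about 40 µL; 0% = median of neutral wells and 100% = positive control level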
# * = called active by the depositor; ? = inconclusive; / = no result given. Not all compounds are listed; count on the stated rates, not on these rows.
SMILES,YB-1 expr inh,PD-1 reversal,MITF inh,Shh pathway inh
C[C@H]1CN([C@@H](C)CO)C(=O)c2cc(NS(=O)(=O)c3ccccc3)ccc2O[C@H]1CN(C)S(=O)(=O)c1cn(C)cn1,0.059,0.3,-4,-27
COc1ccc(NC(=O)N(C)C[C@H]2Oc3ccc(N(C)C)cc3C(=O)N([C@H](C)CO)C[C@H]2C)cc1,0.3,/,-3,-41
C[C@H](CO)N1C[C@H](C)[C@@H](CN(C)Cc2ccc(Cl)c(Cl)c2)Oc2ccc(NC(=O)CCCN(C)C)cc2C1=O,-0.14,1.3,-5,7
Cc1cc(C(=O)Nc2cccc3c2O[C@H](CN(C)Cc2ccc(C(=O)O)cc2)[C@H](C)CN([C@H](C)CO)C3=O)n(C)n1,0.22,/,-9,-39
C[C@@H]1CN([C@@H](C)CO)C(=O)c2cccc(NS(=O)(=O)c3cccs3)c2O[C@@H]1CN(C)C,0.24,2.0,-7,-55
Cc1ccc(NC(=O)CSC2CC(=O)N(c3ccc(F)cc3)C2=O)cc1Cl (stereo not given),/,-2.0,-4,/
Cn1c(=O)[nH]c(=O)c2c1ncn2CC(=O)NCc1ccco1,/,0.6,-22,/
Cc1ccc(S(=O)(=O)N(C)C[C@H]2Oc3c(NS(C)(=O)=O)cccc3C(=O)N([C@H](C)CO)C[C@@H]2C)cc1,0.22,0.6,6,/
CC(C)C(C(=O)O)N1C(=O)/C(=C/c2ccc(Br)cc2)SC1=S (stereo not given),-0.037,1.5,-10,-101
C=C[C@@]1(C)CCC2=C(C1)C(=O)CC1[C@](C)(C(=O)O)CCC[C@]21C (stereo not given in full),0.072,2.7,-14,-2
C[C@@H]1CN([C@@H](C)CO)C(=O)c2cc(NS(=O)(=O)c3cn(C)cn3)ccc2O[C@H]1CN(C)S(C)(=O)=O,0.16,0.7,1,/
C[C@@H]1CCCCO[C@@H](CN(C)Cc2ccncc2)[C@@H](C)CN([C@H](C)CO)C(=O)c2cc(NC(=O)Cc3ccccc3)ccc2O1,0.12,0.8,-3,-8
CCCN(C)C[C@H]1OCCCC[C@@H](C)Oc2ccc(NC(=O)C3CCCCC3)cc2C(=O)N([C@H](C)CO)C[C@@H]1C,-0.19,/,-1,?
C[C@H]1CN([C@@H](C)CO)C(=O)c2cccc(NC(=O)C3CCCCC3)c2O[C@@H]1CN(C)Cc1ccccc1,-0.28,-3.5,34,-10
C[C@@H]1CCCCO[C@H](CN(C)C(=O)Nc2ccc3c(c2)OCO3)[C@@H](C)CN([C@H](C)CO)C(=O)c2cc(NS(=O)(=O)c3ccc(F)cc3)ccc2O1,-0.5,/,-10,-34
C[C@@H]1CN([C@@H](C)CO)C(=O)c2cc(NS(=O)(=O)c3ccc(Cl)cc3)ccc2O[C@@H]1CN(C)CC1CCCCC1,0.63,-1.0,-8,/
C[C@H](CO)N1C[C@H](C)[C@@H](CN(C)Cc2ccncc2)Oc2c(NS(C)(=O)=O)cccc2C1=O,0.21,1.3,-2,-19
Cn1c(=O)c2c(ncn2CC(=O)NCc2ccccc2Cl)n(C)c1=O,/,0.5,-12,/
COC(=O)Nc1nc2ccc(SC(C)C)cc2[nH]1,0.25,/,4,-72
Cc1cccc(OCC(=O)Nc2cccc(-c3nc4ccccc4s3)c2)c1,/,-0.3,-14,/

# Of the compounds above, these have an NH in an aromatic ring.
SMILES,YB-1 expr inh,PD-1 reversal,MITF inh,Shh pathway inh
Cn1c(=O)[nH]c(=O)c2c1ncn2CC(=O)NCc1ccco1,/,0.6,-22,/
COC(=O)Nc1nc2ccc(SC(C)C)cc2[nH]1,0.25,/,4,-72

# Following part.
SMILES,YB-1 expr inh,PD-1 reversal,MITF inh,Shh pathway inh
Cc1ccc(NC(=O)CC2NCCNC2=O)cc1C (stereo not given),/,2.9,-34,/
Cc1ccc(S(=O)(=O)N(C)C[C@@H]2Oc3ccc(NS(=O)(=O)c4c(C)noc4C)cc3CC(=O)N([C@@H](C)CO)C[C@@H]2C)cc1,0.15,-0.6,-16,31
C[C@H](CO)N1C[C@H](C)[C@@H](CN(C)S(=O)(=O)c2ccc(F)cc2)Oc2c(NC(=O)c3nc4ccccc4s3)cccc2C1=O,0.014,-2.3,-6,5
CNC[C@@H]1Oc2c(NC(=O)c3cnccn3)cccc2C(=O)N([C@H](C)CO)C[C@H]1C,0.027,1.9,-6,-43
C[C@H]1CN([C@@H](C)CO)C(=O)c2cccc(NC(=O)Nc3cccc4ccccc34)c2O[C@H]1CN(C)Cc1ccc(C(=O)O)cc1,0.011,/,1,?
C[C@H]1CN([C@@H](C)CO)C(=O)c2cc(NS(C)(=O)=O)ccc2O[C@@H]1CN(C)S(=O)(=O)c1cn(C)cn1,-0.14,/,14,/
C[C@H]1CN([C@@H](C)CO)C(=O)Cc2cc(NC(=O)Cc3cn(C)c4ccccc34)ccc2O[C@@H]1CN(C)C(=O)Nc1ccccc1,0.1,-1.0,10,-22
O=C1Nc2ccccc2C(O)(C(=O)N2CCCCC2)N1c1ccccc1 (stereo not given),0.043,0.5,7,-3
CC(O)CCCc1cc(O)cc(O[C@@H]2O[C@H](CO)[C@@H](O)[C@H](O)[C@H]2O)c1 (stereo not given in full),0.31,-0.1,-12,1
CS(=O)(=O)N1CCN(c2ccccc2NC(=O)c2ccco2)CC1,/,0.8,-42,/
NC(=O)C1(N2CCCCC2)CCN(CC(=O)Nc2ccc(Oc3ccccc3)cc2)CC1,/,1.1,23,/
Cc1ccc(-c2nc3cc(NC(=O)COc4ccccc4[N+](=O)[O-])ccc3o2)cc1,/,3.3,-12,/
O=C(O)CC(C(=O)Nc1ccc(Cl)cc1)N1CCCCC1 (stereo not given),/,3.2,-6,/
CC(C)(C)c1ccc(-c2nnc(SCC(=O)Nc3ccccc3)n2-c2ccccc2)cc1,/,-1.9,6,/
C[C@@H]1CN([C@H](C)CO)C(=O)Cc2cc(NC(=O)Cn3cnnn3)ccc2O[C@H]1CN(C)Cc1ccccc1,-0.0017,-0.3,-2,4
O=C(Nc1ccccc1)C(F)(F)F,-0.14,-0.7,-11,-13
Cc1noc(C)c1NC(=O)N(C)C[C@@H]1Oc2c(NC(=O)NC3CCCCC3)cccc2C(=O)N([C@H](C)CO)C[C@@H]1C,-0.4,/,-1,15
COc1ccc(N(CC(=O)Nc2ccc(I)cc2)S(C)(=O)=O)c(OC)c1,/,4.5,8,/
C[C@H](CO)N1C[C@H](C)[C@@H](CN(C)C(=O)Nc2ccccc2)Oc2c(NC(=O)Nc3cccc4ccccc34)cccc2C1=O,-0.54,-7.0,-26,36
COc1cc(C)c(C(=O)Oc2cc(C)c(C(=O)Oc3cc(C)c(C(=O)NC(C)C(=O)O)c(O)c3)c(O[C@@H]3O[C@H](CO)[C@@H](O)[C@H](O)[C@H]3OC(C)=O)c2)c(OC)c1 (stereo not given in full),0.32,-0.4,-6,2

# Record cards, as listed above. Screens in order: YB-1 expr inh, PD-1 reversal, MITF inh, Shh pathway inh
# Profile of Cc1noc(C)c1NC(=O)N(C)C[C@@H]1Oc2c(NC(=O)NC3CCCCC3)cccc2C(=O)N([C@H](C)CO)C[C@@H]1C = -0.4, /, -1, 15
# Profile of Cc1ccc(-c2nc3cc(NC(=O)COc4ccccc4[N+](=O)[O-])ccc3o2)cc1 = /, 3.3, -12, /
# Profile of C[C@H]1CN([C@@H](C)CO)C(=O)c2cc(NS(C)(=O)=O)ccc2O[C@@H]1CN(C)S(=O)(=O)c1cn(C)cn1 = -0.14, /, 14, /

# Next part
SMILES,YB-1 expr inh,PD-1 reversal,MITF inh,Shh pathway inh
COc1ccc(-c2coc3cc(O[C@@H]4O[C@H](CO)[C@@H](O)[C@H](O)[C@H]4O)cc(O)c3c2=O)cc1,1.5,0.6,-2,-16
C[C@@H]1CN([C@H](C)CO)C(=O)Cc2cc(NS(=O)(=O)c3cccs3)ccc2O[C@@H]1CN(C)Cc1ccncc1,0.3,-1.3,4,16
C[C@@H]1O[C@@H](O[C@H]2[C@H](OC(=O)[C@]34CCC(C)(C)C[C@H]3C3=CCC5[C@@]6(C)C[C@H](O)[C@H](O[C@@H]7O[C@H](C(=O)O)[C@@H](O)[C@H](O)[C@H]7O)[C@@](C)(CO)C6[C@H](O)C[C@@]5(C)[C@]3(C)C[C@H]4O)O[C@@H](CO)[C@@H]2O)[C@H](O)[C@H](O)[C@H]1O[C@@H]1OC[C@@H](O)[C@H](O[C@H]2OC[C@](O)(CO)[C@H]2O)[C@H]1O (stereo not given in full),0.4,-3.2,-3,30
O=C(CS(=O)c1ccccc1[N+](=O)[O-])Oc1ccc(Cl)cc1Cl (stereo not given),/,-4.0,22,/
COc1ccc(Cl)cc1NC(=S)NCc1cc(C)n(C)n1,/,-1.7,1,/
COc1ccc(S(=O)(=O)Nc2ccc3c(c2)CC(=O)N([C@H](C)CO)C[C@H](C)[C@H](CN(C)S(=O)(=O)c2ccccc2)O3)cc1,0.23,3.2,3,14
C[C@H](CO)N1C[C@H](C)[C@H](CN(C)S(=O)(=O)c2ccccc2)Oc2c(NC(=O)c3cnccn3)cccc2C1=O,0.17,-0.6,-31,25
COc1ccc(NC(=O)Nc2ccc3c(c2)CC(=O)N([C@@H](C)CO)C[C@@H](C)[C@@H](CN(C)C(=O)Nc2ccc4c(c2)OCO4)O3)cc1,-0.26,0.2,-5,33
C=C(CC[C@@H](C)[C@H]1CCC2(C)C3=C(C[C@H](O)[C@]12C)[C@@]1(C)CC[C@@H](OC(=O)CC(=O)O)C(C)(C)C1CC3)[C@@H](C)C(=O)O (stereo not given in full),-0.009,/,/,21
Cc1ccc(S(=O)(=O)Nc2ccc3c(c2)C(=O)N([C@H](C)CO)C[C@H](C)[C@H](CN(C)Cc2ccccc2)O3)cc1,-0.15,/,-1,/
COc1ccc2cc(C(=O)NC(C)=O)c(=Nc3ccccc3)oc2c1,0.065,0.3,-24,-13
Cc1sc2ncnc(Nc3cccc(C(=O)O)c3)c2c1C,/,0.9,-11,/
COc1ccc(CCNC(=S)NC2CC2)cc1OC,-0.25,1.2,4,1
C[C@@H]1CN([C@H](C)CO)C(=O)c2cc(N(C)C)ccc2O[C@H]1CN(C)C(=O)Nc1cccc2ccccc12,0.2,/,-9,-26
C=CCN=C1SC(C)(C)C(=O)N1S(=O)(=O)c1ccc(C)cc1,-0.57,-0.4,15,22
Cc1cc2cc(O)cc(O)c2c(=O)o1,0.99,0.3,-8,-6
CC(=O)c1cccc(NC(=O)CSc2nnc(-c3ccccc3Cl)n2-c2ccccc2)c1,/,-3.0,5,/
C[C@H](CO)N1C[C@H](C)[C@H](CN(C)C(=O)Nc2ccc3c(c2)OCO3)Oc2ccc(NC(=O)CCCN(C)C)cc2C1=O,0.088,0.1,10,-39
C[C@@H]1CN([C@H](C)CO)C(=O)c2cccc(NC(=O)C3CCOCC3)c2O[C@H]1CN(C)C(=O)Nc1cccc2ccccc12,0.069,1.5,-1,1
C[C@@H]1CN([C@H](C)CO)C(=O)c2cc(NC(=O)CCCN(C)C)ccc2O[C@@H]1CN(C)C(=O)Nc1ccc2c(c1)OCO2,-0.043,-0.9,-11,-32

# Just YB-1 expr inh, for 2 of the compounds above:
mol	YB-1 expr inh
C[C@@H]1CN([C@H](C)CO)C(=O)c2cc(NC(=O)CCCN(C)C)ccc2O[C@@H]1CN(C)C(=O)Nc1ccc2c(c1)OCO2	-0.043
COc1ccc(S(=O)(=O)Nc2ccc3c(c2)CC(=O)N([C@H](C)CO)C[C@H](C)[C@H](CN(C)S(=O)(=O)c2ccccc2)O3)cc1	0.23

# (list continues)
SMILES,YB-1 expr inh,PD-1 reversal,MITF inh,Shh pathway inh
C[C@@H]1CN([C@@H](C)CO)C(=O)c2cc(NS(=O)(=O)c3cn(C)cn3)ccc2O[C@H]1CN(C)Cc1ccc(-c2ccccc2)cc1,0.085,1.7,11,/
C[C@H]1CN([C@@H](C)CO)C(=O)c2cc(NC(=O)C3CCCCC3)ccc2O[C@@H]1CN(C)Cc1ccc(C(F)(F)F)cc1,0.13,-0.7,19,-18
CC(=O)Nc1cccc(NC(=O)CSc2ccccc2[N+](=O)[O-])c1,/,0.4,-51,/
CC(=O)O[C@@H]1C=C[C@@]2(C)C(C[C@@H](OC(C)=O)[C@@]3(C)C4=CC(=O)O[C@@H](c5ccoc5)[C@]4(C)CCC23)C1(C)C (stereo not given in full),-0.45,/,91*,6
C[C@@H]1CN([C@@H](C)CO)C(=O)c2cc(NS(=O)(=O)c3ccc(F)cc3)ccc2O[C@H]1CN(C)C(=O)Nc1ccccc1,0.31,-0.1,-17,-12
CNC[C@@H]1OCCCC[C@@H](C)Oc2ccc(NS(=O)(=O)c3ccc(C)cc3)cc2C(=O)N([C@H](C)CO)C[C@@H]1C,0.28,0.8,-15,/
C[C@H](CO)N1C[C@H](C)[C@@H](CN(C)Cc2ccc(-c3ccccc3)cc2)Oc2c(NS(C)(=O)=O)cccc2C1=O,-0.11,3.0,-8,9
COc1ccc(S(=O)(=O)N(C)C[C@H]2OCCCC[C@@H](C)Oc3ccc(NS(C)(=O)=O)cc3C(=O)N([C@H](C)CO)C[C@@H]2C)cc1,-0.45,0.9,-2,/
C[C@H](CO)N1C[C@H](C)[C@@H](CN(C)S(=O)(=O)c2cccs2)Oc2c(NC(=O)Nc3ccc(F)cc3)cccc2C1=O,-0.2,0.8,-8,30
Cc1ccc(-c2nc3ccccc3s2)cc1NC(=O)COc1ccccc1Cl,/,2.1,-15,/

# Compound activity (PubChem)
